# Vaccinia stage – Vaccinia orthopox stage-specific inhibition | activity change (mCherry), % (no concentration beside the values) | 89,000 compounds, 0.01% hits | Vaccinia-infected cells, mCherry/Venus stage reporter fluorescence; active compounds read low; some inactives read as strong as hits;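 active = mCherry past -33% and 40 or more points under the early reporter, replicates agreeing; inconclusive = past -33% without that gap or agreement; tested in A549 cells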;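 note: scaled between vehicle wells and reference inhibitor wells; 23 nL library stock went into each well; one replicate is shown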
# Vaccinia stage Venus – recorded beside Vaccinia stage, whose call it bears; activity change (Venus), %; measured here: Venus reporter, other viral stage;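 negative = less Venus signal; first of two replicates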
# Numbers without * were called inactive; ? = inconclusive; . = not tested or not shown; & = joins results of further samples. This is a subset (hit frequency here may not be typical).
# The opening 11 entries as a preview:
1. Cc1ccc(S(=O)(=O)Nc2ccc3c(c2)C(=O)N([C@H](C)CO)C[C@H](C)[C@H](CN(C)S(=O)(=O)c2ccccc2)OCCCC[C@H](C)O3)cc1
2. C[C@H](CO)N1C[C@H](C)[C@@H](CN(C)C(=O)Nc2ccccc2F)Oc2cc(-c3ccc(C(=O)N(C)C)cc3)ccc2S1(=O)=O
3. COc1ccc(NC(=O)N2CC(=O)N3[C@H](CO)[C@@H](c4ccc(/C=C/c5ccccc5)cc4)[C@@H]3C2)cc1
4. C[C@@H]1CCCCO[C@H](CN(C)S(=O)(=O)c2ccc(F)cc2)[C@@H](C)CN([C@H](C)CO)C(=O)c2cc(NS(=O)(=O)c3ccc(Cl)cc3)ccc2O1
5. C[C@@H]1CN([C@@H](C)CO)C(=O)c2cccc(NC(=O)Nc3ccc(F)cc3)c2O[C@@H]1CN(C)Cc1ccc(C(=O)O)cc1
6. Cn1cnc(CCNC(=O)C[C@@H]2CC[C@H]3[C@@H](COC[C@H](O)CN3C(=O)C3CCCC3)O2)c1
7. C[C@H](CO)N1C[C@H](C)[C@H](CN(C)Cc2ccc(C(=O)O)cc2)OCCCC[C@H](C)Oc2ccc(NC(=O)Nc3ccc(C(F)(F)F)cc3)cc2C1=O
8. Cc1ccc(-c2ccc3c(c2)O[C@@H](CN(C)Cc2ccccn2)[C@@H](C)CN([C@H](C)CO)S3(=O)=O)cc1
9. COc1ccc(S(=O)(=O)N(C)C[C@H]2Oc3ncc(-c4ccncc4)cc3C(=O)N([C@@H](C)CO)C[C@@H]2C)cc1
10. CCCC#Cc1ccc2c(c1)O[C@@H](CN(C)Cc1cncnc1)[C@H](C)CN([C@H](C)CO)S2(=O)=O
11. CCCNC(=O)N1[C@H](C#N)[C@@H](c2ccc(-c3ccccc3F)cc2)[C@H]1CO

entry no.	1	2	3	4	5	6	7	8	9	10	11
Vaccinia stage Venus	.	0.8	-21.1	-10.7	2.9	3.8	15.2	-20.7	-3.4&6.1	-26.4	-10.2
Vaccinia stage	?	8.2	-31.6	-12.3	8.0	1.2	23.0	-24.0	-3.7&-4.5	-16.5	-6.7

# Results, from the first entry:
1. Cc1ccc(S(=O)(=O)Nc2ccc3c(c2)C(=O)N([C@H](C)CO)C[C@H](C)[C@H](CN(C)S(=O)(=O)c2ccccc2)OCCCC[C@H](C)O3)cc1
2. C[C@H](CO)N1C[C@H](C)[C@@H](CN(C)C(=O)Nc2ccccc2F)Oc2cc(-c3ccc(C(=O)N(C)C)cc3)ccc2S1(=O)=O
3. COc1ccc(NC(=O)N2CC(=O)N3[C@H](CO)[C@@H](c4ccc(/C=C/c5ccccc5)cc4)[C@@H]3C2)cc1
4. C[C@@H]1CCCCO[C@H](CN(C)S(=O)(=O)c2ccc(F)cc2)[C@@H](C)CN([C@H](C)CO)C(=O)c2cc(NS(=O)(=O)c3ccc(Cl)cc3)ccc2O1
5. C[C@@H]1CN([C@@H](C)CO)C(=O)c2cccc(NC(=O)Nc3ccc(F)cc3)c2O[C@@H]1CN(C)Cc1ccc(C(=O)O)cc1
6. Cn1cnc(CCNC(=O)C[C@@H]2CC[C@H]3[C@@H](COC[C@H](O)CN3C(=O)C3CCCC3)O2)c1
7. C[C@H](CO)N1C[C@H](C)[C@H](CN(C)Cc2ccc(C(=O)O)cc2)OCCCC[C@H](C)Oc2ccc(NC(=O)Nc3ccc(C(F)(F)F)cc3)cc2C1=O
8. Cc1ccc(-c2ccc3c(c2)O[C@@H](CN(C)Cc2ccccn2)[C@@H](C)CN([C@H](C)CO)S3(=O)=O)cc1
9. COc1ccc(S(=O)(=O)N(C)C[C@H]2Oc3ncc(-c4ccncc4)cc3C(=O)N([C@@H](C)CO)C[C@@H]2C)cc1
10. CCCC#Cc1ccc2c(c1)O[C@@H](CN(C)Cc1cncnc1)[C@H](C)CN([C@H](C)CO)S2(=O)=O

entry no.	1	2	3	4	5	6	7	8	9	10
Vaccinia stage Venus	.	0.8	-21.1	-10.7	2.9	3.8	15.2	-20.7	-3.4&6.1	-26.4
Vaccinia stage	?	8.2	-31.6	-12.3	8.0	1.2	23.0	-24.0	-3.7&-4.5	-16.5

11. CCCNC(=O)N1[C@H](C#N)[C@@H](c2ccc(-c3ccccc3F)cc2)[C@H]1CO
12. O=C(N[C@@H]1CC[C@H](CCNS(=O)(=O)c2ccccc2)O[C@@H]1CO)c1cnccn1
13. COc1ccc2c3c([nH]c2c1)[C@H](CO)N(C(=O)c1cccnc1)CC31CN(Cc2cccnc2)C1
14. CC(C)CC#Cc1cnc2c(c1)C(=O)N([C@H](C)CO)C[C@H](C)[C@H](CN(C)Cc1ccc3c(c1)OCO3)O2
15. N#C[C@@H]1[C@@H](c2ccccc2)[C@H](CO)N1C(=O)C1CCCC1
16. COc1cccc(-c2ccc3c(c2)O[C@H](CN(C)C(=O)C2CCCCC2)[C@H](C)CN([C@H](C)CO)S3(=O)=O)c1
17. CCS(=O)(=O)N1CC2(C1)CN(S(=O)(=O)c1ccc(C)cc1)[C@@H](CO)c1[nH]c3cc(OC)ccc3c12
18. C[C@H]1CN([C@@H](C)CO)C(=O)c2ccccc2-c2ccccc2CO[C@@H]1CN(C)C(=O)Nc1ccnc(N2CCOCC2)c1
19. COc1ccc(CN(C)C[C@H]2OCCCC[C@@H](C)Oc3ccc(NC(=O)Nc4cccc5ccccc45)cc3C(=O)N([C@H](C)CO)C[C@@H]2C)cc1
20. O=C(C[C@H]1C=C[C@H](NC(=O)CCN2CCCCC2)[C@@H](CO)O1)Nc1ccccc1

entry no.	11	12	13	14	15	16	17	18	19	20
Vaccinia stage Venus	-10.2	6.3	14.4	-11.6	-1.7	.	-0.5	7.1	-11.2	8.2
Vaccinia stage	-6.7	8.0	26.2	-23.4	-1.4	?	-0.6	12.9	-10.5	0.2

21. O=C(C[C@@H]1CC[C@@H](NC(=O)CCN2CCCCC2)[C@H](CO)O1)Nc1nccs1
22. CO[C@H]1CN(C)C(=O)c2ccc(NC(=O)C3CC3)cc2OC[C@@H](C)N(Cc2ccccc2)C[C@H]1C
23. O=C(CC1CC1)N1CC(=O)N2[C@H](CO)[C@H](c3ccc(C#Cc4ccc(F)cc4)cc3)[C@@H]2C1
24. O=C(C1CCC1)N1CC(=O)N2[C@H](C1)[C@H](c1ccc(-c3cccnc3)cc1)[C@@H]2CO
25. O=C(Nc1ccc2c(c1)[C@@H]1C[C@H](CC(=O)N3CCOCC3)O[C@@H](CO)[C@@H]1O2)Nc1ccccc1F
26. C[C@H]1CN([C@@H](C)CO)C(=O)Cc2cc(NC(=O)C3CCCCC3)ccc2O[C@H]1CN(C)C(=O)Nc1cccc2ccccc12
27. C[C@@H]1CN([C@@H](C)CO)C(=O)Cc2cc(NC(=O)CCN3CCOCC3)ccc2O[C@@H]1CN(C)C(=O)Nc1cccc2ccccc12
28. O=C(C[C@H]1CC[C@@H]2[C@H](COC[C@@H](O)CN2C(=O)c2ccccc2)O1)NCc1cccc(F)c1
29. CN(C)CC(=O)N[C@@H]1CC[C@H](CC(=O)NCCN2CCCCC2)O[C@@H]1CO
30. CCCN(C)C[C@@H]1Oc2cc(C#CCC(C)C)ccc2S(=O)(=O)N([C@@H](C)CO)C[C@@H]1C

entry no.	21	22	23	24	25	26	27	28	29	30
Vaccinia stage Venus	7.5	-1.5	-16.0	-1.7	7.3	19.7	9.3	13.3	20.7	-18.8
Vaccinia stage	1.3	-8.4	-17.8	0.6	5.3	19.6	8.6	7.7	16.2	-32.3

31. CC=Cc1ccc2n(c1=O)C[C@H]1[C@H](CO)[C@@H](C(=O)NCC)[C@@H]2N1C(=O)Nc1cc(F)ccc1F (mixture of isomers)
32. O=C(C[C@@H]1C=C[C@H](NC(=O)Nc2ccc(F)cc2)[C@H](CO)O1)NCc1cccc(F)c1
33. CO[C@H]1CN(C)C(=O)c2cc(NC(=O)c3nc4ccccc4s3)ccc2OC[C@H](C)N(Cc2ccncc2)C[C@@H]1C
34. C[C@H](CO)N1C[C@H](C)[C@@H](CN(C)C(=O)Nc2ccc(C(F)(F)F)cc2)Oc2ncc(C3=CCCC3)cc2C1=O
35. COc1ccc(S(=O)(=O)Nc2ccc3c(c2)C(=O)N([C@H](C)CO)C[C@@H](C)[C@@H](CN(C)C(=O)Nc2ccc(C(F)(F)F)cc2)OCCCC[C@@H](C)O3)cc1
36. O=C(CN1CCOCC1)N[C@@H]1CC[C@H](CCNC(=O)C2CCC2)O[C@@H]1CO
37. C[C@@H]1CCCCO[C@H](CN(C)S(=O)(=O)c2cccs2)[C@@H](C)CN([C@H](C)CO)C(=O)c2cc(NC(=O)Nc3ccc4c(c3)OCO4)ccc2O1
38. CCCC#Cc1ccc([C@@H]2[C@H]3CN(C(=O)Cc4cccnc4)CC(=O)N3[C@H]2CO)cc1

entry no.	31	32	33	34	35	36	37	38
Vaccinia stage Venus	6.4	-2.5	-17.4	7.0	-20.7	0.4	6.2	0.9
Vaccinia stage	12.2	-5.3	-29.8	0.7	-15.3	-2.2	11.6	9.0

# Two compounds drawn at random from the list so far, as already listed:
32. O=C(C[C@@H]1C=C[C@H](NC(=O)Nc2ccc(F)cc2)[C@H](CO)O1)NCc1cccc(F)c1
31. CC=Cc1ccc2n(c1=O)C[C@H]1[C@H](CO)[C@@H](C(=O)NCC)[C@@H]2N1C(=O)Nc1cc(F)ccc1F (mixture of isomers)

entry no.	32	31
Vaccinia stage Venus	-2.5	6.4
Vaccinia stage	-5.3	12.2
